Source: PubChem (several laboratories)
Calb FLC: affects C. albicans growth with fluconazole. C. albicans CaCi-2 (fluconazole-resistant clinical isolate) + fluconazole, Alamar Blue growth, 48 h. hit rate 0.57% among 300,000. growth inhibition, % (concentration not given with the values). AID 1979;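 active = most replicates above 75%; inconclusive = exactly half above 75%; inactive = most below 75%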;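 also: all wells also contain fluconazole at 8 µg/ml as a sub-toxic cotreatment; 0% = median of DMSO wells and 100% = median of geldanamycin control wells; wells of about 8 µL received 7.5 nL stock; the first replicate is given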
T cruzi inh: blocks replication of Trypanosoma cruzi. T. cruzi beta-gal in NIH3T3, luminescence, 90 h. inhibition, % (concentration not given with the values). hit rate 1.4% among 300,000. AID 1885;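 active = mean inhibition across valid replicates above about 55%, limit read from the data; inconclusive = mean below that limit but half or more replicates reach it; inactive = mean below it, under half of replicates reach it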;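 also: signal also drops with host cell toxicity which is not excluded here; 0% = plate median of DMSO wells and 100% = zero luminescence signal; higher percent means less beta-gal luminescence so fewer parasites; stock transfer was 50 nL into about 50 µL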
Beta apoptosis: beta cell apoptosis inhibition; INS-1E cytokine-induced death, ATP luminescence, 48 h; percent of positive-control rescue, neutral wells zero; protection from apoptosis, % (no concentration beside the values); hit rate 0.8% among 300,000;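 active = all replicates at 75% or more, or half of them and the mean; inconclusive = half reach 75% but not the mean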;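 also: 0% = cytokine-treated negative control wells and 100% = positive control rescue; higher means more ATP so stronger rescue from cytokine killing; wells of about 40 µL received 100 nL stock; the first replicate is given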
RanGTP-Impb inh: inhibitors of RanGTP-importin-beta interaction, primary screen, biochemical, FRET, CFP-Ran, YFP-importin-beta, homogeneous | inhibition, % (concentration not given with the values) | hit rate 1.1% among 300,000 | cell-free CFP-Ran/YFP-importin-beta FRET ratio;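 active = most replicates above 15%; inconclusive = exactly half above 15%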;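 also: 0% = DMSO wells and 100% = Ran loaded with GDP instead of GTP; wells of about 40 µL received 100 nL stock; the first replicate is given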
Vif TR-FRET: inhibitors of Vif binding to APOBEC3G peptide, primary screen, biochemical, TR-FRET, GST-Vif 1-94, biotin-A3G peptide, dose response retest (AID 1117319) | TR-FRET GST-Vif / biotin-A3G peptide binding; higher % means a stronger effect; test concentration not given here; strong numbers were not always called active | inhibition, %; hits with a dose series show IC50 in µM | hit rate 0.57% among 260,000;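 active = above the screen mean plus three standard deviations and confirmed in dose response; inconclusive = results disagree or hit not tested in dose response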;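 also: Vif residues 1-94 fused to GST binding biotinylated APOBEC3G peptide 110-148; 0% = full assay without inhibitor and 100% = GST in place of GST-Vif; retest series ran down from 100 µM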
Bfl-1 A1 inh: inhibitors of the anti-apoptotic protein A1, read as caspase activation. MEF A1-2A-BIM cells, Caspase-Glo 3/7 luminescence, 3 h; percent of clofoctol response, vehicle zero. caspase activation, % (no concentration beside the values). hit rate 0.066% among 330,000;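 active = over half of replicate activation scores above 10%, or exactly half above 10 with the replicate mean above 10; inconclusive = replicate mean below 10 yet half the replicates above 10; inactive = over half of replicates below 10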;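 also: wells of about 30 µL received 50 nL stock; many hits fall short of the cut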
LANA-H2B inh: blocks KSHV LANA binding to histone H2A/H2B | inhibition, % (test concentration not listed) | cell-free LANA-H2A/H2B peptide, fluorescence polarization | hit rate 0.6% among 320,000; in the data active = inhibition mostly above about 10%, no sharp cut-off; inactive = mostly below about 6.7%;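 also: stock transfer was 7.5 nL into about 10 µL; 0% = median of vehicle wells and 100% = median of positive control wells; one replicate is shown; the record names a cut of 25% in any replicate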
Target sequence (Q9QR71 whole entry, looked up): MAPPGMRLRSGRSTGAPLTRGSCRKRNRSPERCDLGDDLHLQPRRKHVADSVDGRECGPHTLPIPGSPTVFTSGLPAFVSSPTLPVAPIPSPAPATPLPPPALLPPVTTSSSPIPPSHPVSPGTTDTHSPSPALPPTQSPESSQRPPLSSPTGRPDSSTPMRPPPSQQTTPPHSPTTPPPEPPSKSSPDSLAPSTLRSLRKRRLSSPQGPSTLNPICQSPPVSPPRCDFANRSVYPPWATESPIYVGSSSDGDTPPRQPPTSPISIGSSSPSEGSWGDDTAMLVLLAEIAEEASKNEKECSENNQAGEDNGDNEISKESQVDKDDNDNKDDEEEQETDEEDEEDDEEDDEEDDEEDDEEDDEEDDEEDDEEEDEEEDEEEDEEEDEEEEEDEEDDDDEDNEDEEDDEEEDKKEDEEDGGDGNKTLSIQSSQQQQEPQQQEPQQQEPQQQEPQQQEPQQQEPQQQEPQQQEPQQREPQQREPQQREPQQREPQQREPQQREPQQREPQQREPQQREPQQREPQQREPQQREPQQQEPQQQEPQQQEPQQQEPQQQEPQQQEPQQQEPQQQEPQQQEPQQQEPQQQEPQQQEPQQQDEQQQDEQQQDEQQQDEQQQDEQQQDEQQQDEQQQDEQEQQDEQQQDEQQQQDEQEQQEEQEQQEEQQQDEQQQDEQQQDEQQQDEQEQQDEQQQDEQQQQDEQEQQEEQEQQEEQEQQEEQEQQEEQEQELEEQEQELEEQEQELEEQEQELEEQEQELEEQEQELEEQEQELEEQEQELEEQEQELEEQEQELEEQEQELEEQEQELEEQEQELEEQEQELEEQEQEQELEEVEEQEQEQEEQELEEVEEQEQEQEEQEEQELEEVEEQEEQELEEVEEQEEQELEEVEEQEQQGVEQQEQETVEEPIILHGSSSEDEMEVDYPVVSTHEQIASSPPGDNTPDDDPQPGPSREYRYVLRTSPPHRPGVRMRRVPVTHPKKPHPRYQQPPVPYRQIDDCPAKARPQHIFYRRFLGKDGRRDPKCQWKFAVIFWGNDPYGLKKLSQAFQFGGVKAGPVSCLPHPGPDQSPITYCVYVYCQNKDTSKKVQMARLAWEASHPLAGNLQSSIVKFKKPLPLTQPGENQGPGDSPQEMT
MLL AF4-AF9 inh: blocks AF4 peptide binding to human AF9; P42568; AlphaScreen, biotin-AF4 peptide binding to FLAG-AF9; inhibition, % at 10 µM; hit rate 0.47% among 350,000; AID 651704;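 active = every replicate reaching a set inhibition limit, whatever the replicate mean, cut at about 25% in these data; inconclusive = mean inhibition reaches that limit but some replicates miss it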;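 also: 0% = plate neutral control median and 100% = total signal loss; the record names both 10 and 1 µM as test concentration; the first replicate is given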
The depositor's hits bear a star; ? = inconclusive; . = no result given; & = joins results of further samples.

SMILES	Calb FLC	T cruzi inh	Beta apoptosis	RanGTP-Impb inh	Vif TR-FRET	Bfl-1 A1 inh	LANA-H2B inh	MLL AF4-AF9 inh
O=C(Cc1n[nH]c(=O)[nH]c1=O)N/N=C/c1c(O)ccc2ccccc12	4.5	-2.9	-4.3	1.3	?	0.2	10.3	-3.2
COc1ccc(OC)c(NC(=O)c2c(NC(=O)CNCc3ccco3)sc3c2CCC3)c1	0.0	6.1	3.0	-1.4	-3.9%	-1.0	4.1	.
O=C(N/N=C/c1cccnc1)c1ccc([N+](=O)[O-])cc1Cl	2.9	-27.6	0.9	5.6	10.2%	-0.1	1.3	.
O=c1[nH]c2ccccc2nc1-c1ccccc1	-4.1	-15.9	2.3	-3.5	15.6%	-1.0	-2.8	-53.4
C=CCn1c(SCn2nnc3ccccc3c2=O)nnc1-c1ccc(Cl)cc1	19.0	15.8	-7.6	-0.1	?	1.6	-0.3	.
Clc1ccc(OCCCNCc2ccccc2)c(Br)c1	13.4	36.9	17.4	3.7	-1.9%&-8.1%	-0.1	-4.9	.
Cn1c(=O)c2c(-c3ccccc3F)c3c(nc2n(C)c1=O)-c1ccccc1C3O (stereo not given)	2.0	-5.6	-1.1	9.0	-2.1%	0.1	-1.1	.
Cc1cc(C)n2nc(CNS(=O)(=O)c3cccc([N+](=O)[O-])c3)nc2n1	14.2	1.3	4.3	-2.4	-2.4%	0.8	3.7	1.3
Cc1ccc(NS(=O)(=O)N(C)C)cc1	-5.0	-9.1	-6.2	-0.7	1.2%	1.3	2.8	.
CCn1c(C)c(C)c2cc(C(=O)N3CCCC3)ccc21	9.1	-2.9	0.5	-5.1	.	-0.5	-7.6	6.5
CCOc1ccc(/C(O)=C2/C(=O)C(=O)N(CCCn3ccnc3)C2c2cccs2)cc1Cl (stereo not given)	1.8	-0.1	-1.4	-0.2	-4.2%	0.6	-3.4	.
Cc1ccc(CNS(=O)(=O)c2ccc(C)s2)cc1	20.9	-18.1	.	3.7	.	-2.4	-2.0	-1.4
Cn1cccc1C(=O)NC(=O)COC(=O)CCNS(=O)(=O)c1cccc(C(F)(F)F)c1	.	.	-0.5	.	11.1%	0.7	.	1.0
CCOC(=O)C1CCN(C(=O)CN(c2ccc3c(c2)OCCO3)S(=O)(=O)c2ccccc2)CC1	-0.2	-1.2	-2.6	1.6	1.0%	-0.4	-2.4	1.1
NS(=O)(=O)c1ccc(Nc2nc(-c3cccnc3)cs2)cc1	3.2	4.3	.	5.1	-3.6%	0.3	4.6	-0.4
Cn1ccnc1SCC(=O)Nc1ccc(F)c([N+](=O)[O-])c1	-0.3	4.3	1.8	0.2	5.6%	-0.9	3.9	0.9
COCCn1c(SCC(=O)NC(C)c2ccccc2)nc2ccccc21 (stereo not given)	12.1	-3.2	-2.4	0.4	.	-0.4	4.7	-0.3
COc1ccc(S(=O)(=O)NNC(=O)c2ccc(-n3c(C)ccc3C)cc2)cc1	18.8	0.3	.	-9.0	23.1%	?	-2.3	0.1
Cc1cc(=O)n2c3ccccc3n(CC(O)CN3CCN(Cc4ccccc4)CC3)c2c1C#N (stereo not given)	-13.8	18.6	12.4	-0.4	2.5%	1.2	-2.8	-0.8
COc1ccc(OCc2cc(C(=O)N3CCC(OC)CC3)no2)c2ccccc12	3.9	12.0	1.2	-2.3	2.5%	-0.4	4.1	4.4
COc1ccc(OC)c(NC(=O)CN2CCN(C(=O)c3ccco3)CC2)c1	5.1	-4.3	-8.0	2.0	0.7%	-0.6	3.6	.
COc1ccc(CCNC(=O)CCc2cn(C)c3ccccc23)c(OC)c1	-22.9	18.7	0.9	-1.4	-2.4%	-0.1	3.5	2.1
CN(CC(=O)Nc1ccccc1Cl)C(=O)CN1C(=O)C2CCCCC2C1=O (stereo not given)	-0.3	-2.0	-5.2	1.9	5.4%	0.0	-4.0	-1.3
O=C(CSc1nnnn1-c1ccc(Cl)cc1)Nc1cccnc1Cl	-4.5	6.7	-9.6	-0.5	4.4%	0.4	2.9	.
O=S(=O)(NCCc1cn2ccccc2n1)c1cccs1	-5.9	1.9	-5.2	0.1	1.5%	1.0	-1.1	2.7
COc1ccc(-c2cc(C(F)(F)F)c(C#N)c(SCC(=O)Nc3ccc(C)cc3)n2)cc1	-4.8	-8.3	0.5	2.5	-8.8%	1.3	3.4	.
Cc1ccc(CNC(=O)CSc2c3c(nc4ccc(Cl)cc24)CCCC3)o1	12.3	18.8	-14.3	3.8	-3.3%	0.0	3.4	.
Cc1cc2oc(C(=O)N(Cc3ccco3)C3CCS(=O)(=O)C3)cc(=O)c2cc1Cl (stereo not given)	12.4	1.3	7.7	-6.1	1.6%	-0.5	1.7	.
CCc1ccc(CN(C)C(=O)c2cc(S(=O)(=O)N3CCN(CC)CC3)ccc2Cl)cc1	0.5	-0.4	.	8.2	4.6%	-0.7	-4.6	12.6
COc1cccc(N2CCN(C(=O)c3ccc(N4C(=O)NC5CC4(C)Oc4ccccc45)cc3)CC2)c1 (stereo not given)	4.5	-6.7	-3.3	0.5	14.7%	-0.3	5.9	.
NC(=O)c1ccc(-n2nnnc2SCc2ccccc2)cc1	-2.5	-18.8	-4.7	2.7	-3.0%	1.1	0.5	.
COC(=O)C1=C(CSc2nncn2C)NC(=O)NC1c1cc(C)ccc1C (stereo not given)	4.8	1.2	-3.8	2.4	2.0%	-0.1	-5.2	.
O=C(c1cc2ccccc2o1)N1CCC(N2CCC(C(=O)N3CCCC3)CC2)CC1	-13.8	-1.4	-2.9	-3.0	.	0.4	4.6	-1.9
CCC(C)OC(=O)c1[nH]c2c(c1C)C(=O)CC(c1ccc(N(C)C)cc1)C2 (stereo not given)	-9.3	-3.7	-10.7	-0.7	19.8%	1.4	-8.3	8.2
COc1ccc(C(=O)Nc2ccc(SC(F)F)cc2)cc1	-2.0	4.6	3.3	1.6	.	-2.8	-0.9	.
COc1cc(OC)cc(-n2nnnc2SCC(=O)NCc2cccs2)c1	30.8	4.6	-6.3	2.5	6.9%	-1.1	0.1	-2.5
NS(=O)(=O)c1ccc(NC(=O)/C=C/c2ccccc2[N+](=O)[O-])cc1	4.6	-0.7	6.0	0.9	3.3%	0.5	-4.8	-0.5
CC1CCc2nc(NC(=O)C3COc4ccccc4O3)sc2C1 (stereo not given)	1.6	17.1	10.6	-2.6	13.8%	-4.0	-0.1	-0.5
Cc1cc(C(=O)OCC(=O)NC2CCS(=O)(=O)C2)c(C)n1-c1ccccc1 (stereo not given)	19.4	-5.8	-14.4	-5.1	6.0%	0.0	-3.7	.
O=C(O)c1cc2c(o1)CCC/C2=N\O	-5.9	7.1	0.8	.	28.3%	0.9	-1.2	3.3
CCOC(=O)NCc1ccc(S(=O)(=O)Nc2ccccc2C)cc1	-0.2	-1.4	-1.6	1.2	7.0%	0.7	2.3	.
Brc1ccc(-c2nn[nH]n2)cc1	-10.1	2.5	-1.1	2.7	.	-0.6	1.9	-3.2
CC(O)CNc1nc2c(c(=O)n(C)c(=O)n2C)n1C/C=C/c1ccccc1 (stereo not given)	0.0	-2.6	3.8	1.0	-2.0%	0.5	2.4	4.9
Cc1cccc(NC(=O)CSc2nc(N)c(NC(=O)c3cccs3)c(=O)[nH]2)c1	4.8	-7.8	-6.4	1.4	19.0%	0.2	-2.1	-2.1
O=C(Nc1ccc(F)cc1)Nc1nnc(-c2ccco2)s1	-6.7	3.1	11.1	-1.4	22.2%	0.1	2.7	-2.3
CC(C)(C)NC(=O)Nc1cccc(Cl)c1Cl	-28.1	-14.3	22.5	-1.2	18.0%	0.0	0.6	-0.3
COc1ccc(C(=O)NCCCN2CCOCC2)cc1S(=O)(=O)N1CCCc2ccccc21	2.0	13.6	2.8	1.6	5.8%	2.3	2.9	0.2
COc1cc2c(cc1OC)CN(Cc1cc(=O)oc3c(C)c(C)ccc13)CC2	-8.3	6.6	-4.5	20.0*	.	-1.0	-0.8	5.1
CC(C(=O)N1CCCc2ccccc21)N1CCN(c2ccccn2)CC1 (stereo not given)	3.6	1.5	-4.7	-0.3	.	-0.4	-0.9	1.2
Cc1ccc(S(=O)(=O)N2CCC[C@H]2C(=O)NCc2ccccc2Cl)cc1	.	.	-4.5	.	-4.9%	-1.1	-0.1	-0.3
CC(=O)c1ccc(N2CCN(C(=O)c3ccc4c(c3)OCO4)CC2)cc1	-2.0	4.2	1.5	3.0	68.7%	0.1	-4.8	1.6
O=C(NCc1ccc2c(c1)OCO2)c1cc2c(s1)CSC2	6.2	6.9	2.6	-1.0	16.0%	-0.5	1.5	13.7
Cc1oc(-c2cccc3ccccc23)nc1CN1CCC[C@H]1CO	-11.8	18.0	-3.1	4.8	7.0%	0.0	6.0	5.4
Cn1c(=O)n(-c2ccccc2)c(=O)c2c3c(sc21)COC(C)(C)C3	12.8	3.7	.	1.4	-0.8%	0.5	-1.5	.
CCc1nc(N2CCN(C(C)=O)CC2)c2c3c(sc2n1)CCCC3	-3.1	-12.7	-6.1	1.4	.	1.1	1.4	-3.3
CC(C)(O)C(=O)N/N=C\c1ccc(OC/C=C/c2ccccc2)cc1	41.5	-11.9	4.1	2.6	.	-0.1	-0.4	0.2
c1ccc(Nc2cccc(Nc3ccccc3)n2)cc1	2.0	40.9	-2.5	5.8	13.6%	-0.8	-2.6	.
COc1cc(C(=O)NCCc2nc3ccccc3n2C)cc(OC)c1OC	-4.1	11.4	.	7.1	25.6%	-0.5	-4.9	0.9
NS(=O)(=O)c1ccc(CCNC(=O)COC(=O)CCc2c[nH]c3ccccc23)cc1	.	.	4.3	.	2.5%	-1.3	-2.8	-1.4
CCC(C)(C)NC(=O)C(c1ccccn1)N(C(=O)c1csnn1)c1ccc(C)c(C)c1 (stereo not given)	-0.8	-9.8	0.9	?	-5.0%	0.4	3.3	-1.0
Other structures:
SMILES	Calb FLC	T cruzi inh	Beta apoptosis	RanGTP-Impb inh	Vif TR-FRET	Bfl-1 A1 inh	LANA-H2B inh	MLL AF4-AF9 inh
Cc1ccccc1-c1nc2c(s1)CCc1onc(-c3ccc(Cl)cc3)c1-2	5.3	-4.3	-0.6	0.5	.	-0.3	-2.1	2.1
C[C@H](CCC(=O)O)[C@H]1CC[C@H]2[C@@H]3[C@H](O)C[C@@H]4C[C@H](O)CC[C@]4(C)[C@H]3C[C@H](O)[C@]12C	-1.2	?	-2.3&-6.6&-3.8	5.3&1.9&4.3	.	-0.5&-0.5&0.6	-4.8&0.2&10.0	-1.6&-3.6&-1.8
COCCNS(=O)(=O)c1cccc2cccnc12	10.1	-10.7	1.0	2.4	-1.5%	-0.1	-2.0	-0.6
Cc1c(C(=O)N/N=C/C(C)C)[nH]c2ccc([N+](=O)[O-])cc12	22.4	-1.7	-4.7	0.6	13.0%	0.1	-3.1	5.0
COCCCn1c(SCC(=O)NC2CCCC2)nnc1-c1ccccc1	-1.6	-4.7	-9.3	-0.5	.	0.0	1.6	-3.8
CCC(c1nnnn1C1CCCCC1)N1CCN(C2CCCC2)CC1 (stereo not given)	-11.3	5.9	-6.2	-1.8	0.0%	0.2	-4.5	.
Cc1cccc(C)c1NC(=O)CNC(=O)Cn1nc(C)c(C)c(C#N)c1=O	-4.1	-6.0	-8.5	2.0	0.3%	-0.6	-0.8	-2.4
